Mtb betalactam: beta-lactam sensitization of Mtb H37Rv; M. tuberculosis H37Rv growth with meropenem, percent inhibition; hits of this screen are not shown here; inhibition, % at 25 µM; actives 0.27% (n = 330,000);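 active = about 74% or more and at least 40 points above the plate without the antibiotic, then above 30% in a dose series; inconclusive = first-round hits that could not be retested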;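 also: growth measured after seven days incubation then overnight dye step; 0% = bacteria only wells and 100% = bacteria with antibiotic; twin plates without the antibiotic show which effects depend on it; some results filed as inactive read as strong as hits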
Mtb growth: M. tuberculosis H37Rv growth inhibitors, H37Rv strain (AID 1626) | M. tuberculosis H37Rv growth inhibition; higher % means a stronger effect | one-dose inhibition, % at 10 µM; IC50 in µM for titrated hits | actives 0.95% (n = 220,000);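 active = confirmed in a dose series; inconclusive = inhibition above 80% but not taken into the dose series; inactive = below 80% or under 30% at every dose of the series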;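 also: bacteria incubated seven days before Alamar blue readout; 0% = bacteria only wells and 100% = bacteria with antibiotic wells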
Arbovirus inh: blocks arbovirus infection; arbovirus infection cell-based antiviral screen; inhibition, % at 10 µM; actives 0.37% (n = 200,000);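 active = inhibition from about 30%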;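 also: bluetongue infection of BSR cells; cell survival read as ATP light after 72 h; 0% = infected wells without compound and 100% = uninfected wells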
YopH PTP inh: inhibitors of Yersinia enterocolitica YopH tyrosine phosphatase; fluorescence Ex485/Em525; inhibition, %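 (about 10 µM by stock and volumes)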; actives 0.16% (n = 140,000); AID 898;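 active = inhibition of 50% or more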;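 also: controls were vehicle for no effect and minimum signal wells for full effect; inactives centre near -20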
RecA intein inh: blocks M. tuberculosis RecA intein splicing | inhibition, %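 (about 9 µM by stock and volumes)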 | actives 0.75% (n = 290,000) | cell-free RecA intein splicing, fluorescence | P9WHJ3 | AID 2221; in the data active = inhibition above about 30%; inconclusive = no clear call, values can overlap the other calls;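 also: 0% = vehicle wells and 100% = reference inhibitor control wells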
Target sequence (P9WHJ3 whole entry, looked up): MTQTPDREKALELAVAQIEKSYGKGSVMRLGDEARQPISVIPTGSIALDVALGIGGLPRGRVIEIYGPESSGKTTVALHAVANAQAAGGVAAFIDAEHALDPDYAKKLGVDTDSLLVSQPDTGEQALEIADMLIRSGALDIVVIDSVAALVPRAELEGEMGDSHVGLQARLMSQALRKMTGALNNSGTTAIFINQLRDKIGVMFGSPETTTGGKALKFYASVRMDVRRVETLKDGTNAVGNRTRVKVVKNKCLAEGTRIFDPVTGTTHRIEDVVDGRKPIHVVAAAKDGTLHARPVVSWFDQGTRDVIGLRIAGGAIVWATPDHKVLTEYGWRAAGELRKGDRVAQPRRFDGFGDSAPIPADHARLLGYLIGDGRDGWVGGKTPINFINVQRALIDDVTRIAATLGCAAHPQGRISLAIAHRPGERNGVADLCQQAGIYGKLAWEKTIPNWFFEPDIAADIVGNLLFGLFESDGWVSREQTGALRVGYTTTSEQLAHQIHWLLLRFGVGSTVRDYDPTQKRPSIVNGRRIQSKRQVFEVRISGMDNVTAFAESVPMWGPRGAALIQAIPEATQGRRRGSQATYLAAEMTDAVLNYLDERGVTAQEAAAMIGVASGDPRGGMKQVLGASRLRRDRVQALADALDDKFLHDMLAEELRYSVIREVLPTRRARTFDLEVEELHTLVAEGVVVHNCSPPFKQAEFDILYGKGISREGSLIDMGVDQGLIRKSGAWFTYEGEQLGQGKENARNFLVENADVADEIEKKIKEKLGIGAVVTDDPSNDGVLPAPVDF
Arbovirus inh repeat: second read-out of Arbovirus inh, no call of its own (marks repeat the call); inhibition, %; measured here: 10K subset replicate screen; many hits read low in the repeat;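 first of two repeat runs on a subset; 0% = infected and 100% = uninfected wells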
Numbers without * were called inactive; ? = inconclusive; . = not tested or not shown; & = joins results of further samples. A portion of the library. The share of hits here may be higher or lower than overall.

Sample of the layout:
SMILES	Mtb betalactam	Mtb growth	Arbovirus inh	YopH PTP inh	RecA intein inh	others
COc1ccc(OC(=O)Nc2ccc([N+](=O)[O-])cc2OC)cc1	0	-4%	.	.	-6.3
COC(=O)c1ccc(NC(=S)NC2CC2)cc1	-1	-5%	5	.	-6.5
COC(=O)c1sc(N)c(C(=O)OC)c1COC(=O)CNS(=O)(=O)c1cccc(C#N)c1	2	7%	11	-7	-4.0

This part in full, previewed entries included:
SMILES	Mtb betalactam	Mtb growth	Arbovirus inh	YopH PTP inh	RecA intein inh	others
COc1ccc(OC(=O)Nc2ccc([N+](=O)[O-])cc2OC)cc1	0	-4%	.	.	-6.3
COC(=O)c1ccc(NC(=S)NC2CC2)cc1	-1	-5%	5	.	-6.5
COC(=O)c1sc(N)c(C(=O)OC)c1COC(=O)CNS(=O)(=O)c1cccc(C#N)c1	2	7%	11	-7	-4.0
O=C(COc1ccc(Br)cc1)Nc1ccc([N+](=O)[O-])cn1	97	77%	3	-36	1.3
Cc1cc(N(CCO)CCO)ccc1C(c1ccc(N(CCO)CCO)cc1C)c1ccccc1Cl	3	-5%	-48	11	25
COc1ccc(-n2c(=S)[nH]c3cc(C(=O)NCCCN4CCCC4=O)ccc3c2=O)c(OC)c1	0	-9%	-1	1	-0.2
O=C(Nc1cccc(C(=O)O)c1)/C(=C\c1ccccc1)NC(=O)c1ccccc1Cl	-4	4%	5	-38	.
Cc1cc(Cl)ccc1OCC(O)CN1C(C)CCCC1C (configuration not stated)	-9	9%	-5	.	.
COc1ccc(-c2c(C)nc(N)nc2-c2ccc(OC)cc2O)cc1	9	.	.	.	-1.5
Cc1ccc(/C=N/NC(=O)c2nnn(-c3nonc3N)c2CSc2ccc(Cl)cc2)o1	-1	.	.	.	1.9
COc1ccc(C(CCN2CCN(c3ccccc3)CC2)c2c(O)cc(OC)cc2OC)cc1 (configuration not stated)	80	39%	.	.	10
Cc1cc(C)n(C(=O)CCCn2nc(C)c([N+](=O)[O-])c2C)n1	-1	.	2	.	0.4
CCCCCCc1cc2cc(-c3nnc(-c4cc(OC)c(OC)c(OC)c4)o3)c(=O)oc2cc1O	3	-13%	-31	-10	-53
COc1ccc(C2Nc3ccccc3C(=O)N2Cc2ccco2)cc1CN1C(=O)c2ccccc2C1=O (configuration not stated)	-8&1	14%&3%	5&6	-4	9.6
COc1cc(/C=N/Nc2nc(Nc3ccccc3)nc(-n3nc(C)cc3C)n2)cc(OC)c1OC	-2	?	-21	-39	4.7
COc1cccc(N2CCN(S(=O)(=O)c3cccc4cccnc34)CC2)c1	-4	1%	-1	.	-2.1
CCc1ccc2oc(C(=O)Nc3ccc(S(N)(=O)=O)cc3)c(C)c2c1	-1	-1%	11	.	-1.6
CC(Nc1nc2ncn(Cc3ccccc3)c2c(=O)[nH]1)C(=O)O (configuration not stated)	-4	.	1	-17	-0.1
CC(C)CN(C(=O)Cn1nnc(-c2ccc(F)cc2)n1)C1CCS(=O)(=O)C1 (configuration not stated)	2	.	.	.	-3.3
Cc1ccccc1CSCC(=O)N1CCN(c2ccccc2)CC1	3	10%	11	-20	6.7
COc1cccc(CNC(=O)C2CCN(S(=O)(=O)c3ccc(-n4cnnn4)cc3)CC2)c1	-4	.	.	.	0.6
Cc1cc(Cl)ccc1OCC(=O)N1CCCN(C(=O)COc2ccc(Cl)cc2C)CC1	3	14%	-22	-26	8.4
COc1cc2c(cc1C=O)OCO2	1	-11%	-4	-32	4.2
COCc1cc(C)nc(OCC(=O)N/N=C/c2ccccc2O)c1C#N	6	-7%	-11	.	-5.4
COC(=O)c1ccccc1NC(=S)N1CCN(C2CCCCC2)CC1	-3	-4%	4	.	-1.3
CCC(C)(C)NC(=O)C(c1ccc(OC)cc1)N(CC1CCCO1)C(=O)CCC(=O)Nc1cc(C)on1 (configuration not stated)	-6	-4%	2	-27	.
CCOc1ccc(NC(=O)N2CCN(CC)CC2)cc1	-3	-4%	1	-22	-0.1
Cc1ccccc1Nc1nc(N)nc(CSc2nnnn2C)n1	-2	0%	8	.	.
CC(C)c1ccc(OCC(=O)NCc2n[nH]c(=O)c3ccccc23)cc1	3	.	.	.	-0.7
CN(Cc1ccccc1)C(=O)CN(C)S(=O)(=O)c1ccc(F)cc1	-7	.	.	.	0.8
COCCn1c(SCC(=O)N2CCCC(C)C2)nnc1-c1ccco1 (configuration not stated)	-2	.	.	.	2.8
Cc1ccc(-c2cc(C(F)F)n3ncc(C(=O)N4CCc5ccccc5C4)c3n2)cc1	98	12%	-17	.	.
Clc1cccc(Cl)c1-c1nnc2ccc(N3CCOCC3)nn12	7	6%	1	-2	9.9
Cc1cccc(-n2cc3c(=O)n(C)c(=O)n(C)c3c2)c1	-1	3%	-8	.	1.9
Cc1cc(C)n2nc(NCc3ccccc3)nc2n1	-7	-7%	-5	-1	-9.7
Cc1ccc2c(c1)c1c(n2CC(O)Cn2c(C)nc3ccccc32)CCCC1 (configuration not stated)	-2	15%	9	-44	2.4
C/C(=N\NC(=O)c1csc(C)c1C)c1ccco1	-5	-8%	-1	-63	-0.4
CCc1ccc(NC(=O)C(C)OC(=O)CC(NC(C)=O)c2ccccc2)cc1 (configuration not stated)	3	.	.	.	-1.5
O=C(NCCN1CCOCC1)C(=O)NCC1OCCN1S(=O)(=O)c1ccc(F)cc1 (configuration not stated)	-20	.	.	.	0.9
CC1=C(C(=O)OCc2ccccc2)C(c2cccc([N+](=O)[O-])c2)NC(=O)N1 (configuration not stated)	3	.	.	.	-0.2
CC(=O)c1cc2c(cc1NC(=O)C1CC=CCC1C(=O)O)OCO2 (configuration not stated)	-1	-8%	7	-16	-1.1
CCCNC(=O)c1cn(CC)c2cc(N3CCN(C(=O)c4ccco4)CC3)c(F)cc2c1=O	87	.	.	.	-5.5
CCOc1ccc(C(=O)NC2CC(=O)N(c3ccc4c(c3)OCCO4)C2)cc1 (configuration not stated)	-4	.	.	.	4.4
COc1cc([N+](=O)[O-])ccc1-c1ccc(/C=N\n2cnnc2)o1	7	.	.	.	-1.7
O=[N+]([O-])c1ccc(OCCN2CCCCCC2)cc1	-9	-5%	-9	-7	-0.8
Cn1c(SCc2nc3ccccc3[nH]2)nnc1-c1cnccn1	-4	7%	-1	-32	-0.2
CC(=O)N1N=C(c2ccc(Cl)cc2)OC12CCCC2	10	13%	.	.	6.0
CCOC(=O)C(=CNc1cc(C(F)(F)F)ccc1N1CCOCC1)C(=O)OCC	22	-4%	.	.	0.5
Cc1cc(-c2nnc(CSc3nnc(NC(=O)c4ccc(C(C)(C)C)cc4)s3)o2)ccc1[N+](=O)[O-]	-7	-14%	.	.	0.7
NC(=O)c1ccccc1NC(=O)CSc1nc2ccccc2c(=O)[nH]1	-2	.	.	.	-0.3
CC(C)CNC(=S)NNC(=O)c1ccco1	3	-4%	-2	-29	-2.5
CCCc1cc(=O)oc2cc(C)cc(OC(C)C(=O)NCCCN3CCOCC3)c12 (configuration not stated)	-11	.	.	.	-2.7
Cc1ccccc1NS(=O)(=O)c1nnc(NC(=O)c2ccc(Br)cc2)s1	-1	.	.	.	0.9
CCOc1ccc(NC(=O)c2ccc(CN3CCc4ccccc4C3)cc2)cc1	-4	.	.	.	-0.4
O=C(NNC(=O)c1ccc2ccccc2c1)Nc1ccc(F)cc1	-2	.	.	.	-0.3
CCOC(=O)C(CN1CCCC1)c1ccccc1 (configuration not stated)	-8	.	.	.	-2.0
Cc1cc(NC(=O)CCN2C(=O)c3ccccc3C2=O)no1	-1	-3%	2	-36	-5.5
CCOC(=O)C1CCN(C(=O)c2ccc3c(c2)S(=O)(=O)c2ccccc2C3=O)CC1	8	.	.	.	-2.8
O=C(COc1nsnc1N1CCOCC1)Nc1ccc(Cl)cc1	3	-2%	2	.	3.9
CCC(=O)Nc1ccc(/C(C)=N\NC(=O)c2ccc(OC)cc2)cc1	6	4%	5	-31	1.8

The list goes on (two carried over from the part before).
SMILES	Mtb betalactam	Mtb growth	Arbovirus inh	YopH PTP inh	RecA intein inh	others
O=C(COc1nsnc1N1CCOCC1)Nc1ccc(Cl)cc1	3	-2%	2	.	3.9
CCC(=O)Nc1ccc(/C(C)=N\NC(=O)c2ccc(OC)cc2)cc1	6	4%	5	-31	1.8
Cc1nc2ncnn2c(C)c1CCC(=O)Nc1ccc(S(=O)(=O)N2CCCCCC2)cc1	-35	-14%	-2	-41	-0.1
Cc1ccc2cc(CCNC(=O)C(C)C)c(=O)[nH]c2c1	-4	10%	7	-12	1.6
O=C(O)CSCC(=O)N1CCCN(c2nc3ccc(Cl)cc3s2)CC1	-1	-2%	.	.	1.7
CCn1c(C)nc2c(C)[n+](CC(=O)c3ccc(Br)cc3)ccc21	-7	2%	-2	.	.
CC(C)On1c(SCC(=O)N(C)C)nc2ccccc2c1=O	-10	0%	.	.	0.7
CCOC(=O)c1c(CN(CC)CC)n(-c2ccccc2)c2ccc(O)cc12	0	.	.	.	-2.9
CC(C)C(=O)Nc1oc(-c2ccccc2)cc1C#N	2	3%	-2	.	0.1
Cc1ccccc1OCCC(=O)Nc1cc(S(=O)(=O)N2CCOCC2)ccc1OC(C)C	-1	.	.	.	3.0
CC1C(=O)N2CCCc3cc(NS(=O)(=O)c4ccc(F)cc4)cc1c32 (configuration not stated)	-15	.	.	.	1.0
COc1ccc(CCNS(=O)(=O)c2ccc3c(c2)oc(=O)n3C)cc1OC	-2	-2%	8	-36	-8.5	Arbovirus inh repeat=-1
COC(=O)N/N=C/c1ccc(-c2cc(Cl)cc(Cl)c2)o1	6	5%	3	-19	1.3
CCC(C)(C)n1nnnc1CN1CCC(O)(c2cccc(C(F)(F)F)c2)CC1	-1	-1%	2	-21	-1.7
NC(=O)C1(N2CCCCC2)CCN(C(=S)Nc2ccc(F)cc2)CC1	-2	3%	2	-39	1.8
CCOC(=O)c1c(NC(=O)c2ccoc2C)sc2c1CCC2	6	-3%	1	-2	.
C[C@@H]1CC[C@@]2(O[C@@H](CCO)C[C@@H](O)[C@@H]2O)O1	-2	-4%	.	.	-0.1
COc1ccc2nc(-c3ccccc3)cc(OC)c2c1	?	?	5	-8	4.2
COc1ccc(NC(=O)Cc2ccccc2)cc1	4	0%	2	-17	1.5
CC1(c2ccccc2)NC(=O)N(CC(=O)NCc2ccc3c(c2)OCO3)C1=O (configuration not stated)	-1	.	.	.	1.5
Cc1cccc(CCNc2nc3ccc(C)cc3n3cnnc23)c1	-3	.	.	.	0.9
COc1ccc(OC)c(-c2csc(N(C)C(=O)Cc3ccccc3)n2)c1	3	8%	0	.	4.6

Copied from the results shown for reference:
SMILES	Mtb betalactam	Mtb growth	Arbovirus inh	YopH PTP inh	RecA intein inh	others
Cc1nc2ncnn2c(C)c1CCC(=O)Nc1ccc(S(=O)(=O)N2CCCCCC2)cc1	-35	-14%	-2	-41	-0.1
Cc1ccc2cc(CCNC(=O)C(C)C)c(=O)[nH]c2c1	-4	10%	7	-12	1.6
O=C(O)CSCC(=O)N1CCCN(c2nc3ccc(Cl)cc3s2)CC1	-1	-2%	.	.	1.7
CCn1c(C)nc2c(C)[n+](CC(=O)c3ccc(Br)cc3)ccc21	-7	2%	-2	.	.

(continued)
SMILES	Mtb betalactam	Mtb growth	Arbovirus inh	YopH PTP inh	RecA intein inh	others
COc1ccc(-c2cc(C(=O)Nc3c(C)n(C)n(-c4ccccc4)c3=O)c3ccccc3n2)c(OC)c1	7	.	.	.	-1.0
CCN(CC)C(=O)c1cnn(-c2ccccc2)c1NC(=O)c1cccc(F)c1	-4	2%	0	-2	-0.6
Cc1ccc(C)c(-n2c(-c3cccnc3)n[nH]c2=S)c1	-4	1%	7	.	1.1
CC(=O)N1CCN(CC(=O)Nc2ccc([N+](=O)[O-])cc2Br)CC1	5	-12%	2	.	-0.6
CCc1cc2c(SCC(=O)Nc3ccc(Cl)cn3)ncnc2s1	.	-6%	-18	-33	.
CO/N=C(\C(=O)N[C@@H]1C(=O)N2C(C(=O)O)=C(COC(C)=O)CS[C@H]12)c1csc(N)n1 (stereo in doubt)	0&60	-7%	0	-26	-0.7
O=C(CCN1C(=O)/C(=C/c2ccccc2Cl)SC1=S)NNC(=O)c1cccnc1	-8	5%	.	.	2.8
Cc1nn(C)c(C)c1/C=C1/SC(=S)NC1=O	-6	.	-14	-28	2.7
OC(COc1ccc2c(c1)OCO2)CN1CCCC1 (configuration not stated)	7	3%	7	.	-2.7
CCOCCCNC(=O)C1CCN(S(=O)(=O)CC)CC1	1	-2%	6	-36	0.6
CC(NC(=S)NCCCN1CCOCC1)C1CC2CCC1C2 (configuration not stated)	.	-6%	15	.	.
CC(Sc1nc2cc(Cl)ccc2s1)C(=O)Nc1cccc(S(=O)(=O)N2CCOCC2)c1 (configuration not stated)	5	5%	6	-10	3.5
O=C(Nc1ccccn1)c1ccc(Br)c(S(=O)(=O)N2CCCCC2)c1	7	5%	6	-24	5.6

High-throughput results deposited in PubChem by several laboratories.
